Source: PubChem BioAssay (Fisher Drug Discovery Resource Center)
NPYLR7 agonist – mosquito NPYLR7 agonism; HEK293T NPYLR7/Galpha15, GCaMP6s calcium fluorescence; activation, % at 10 µM; 270,000 compounds, 0.15% hits; AID 1259423; in the data active = activation above about 40%;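 note: 0% = vehicle and 100% = reference agonist at the receptor; some compounds past the cut are filed as inactive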
NPYLR7 agonist max-min – also measured in NPYLR7 agonist; calls as there; activation, %; measured here: Max-Min RFU normalised activation; some inactives read as strong as hits;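 span of the calcium signal over five minutes; 0% = vehicle and 100% = native peptide agonist; compound fluorescence can raise it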
* = called active by the depositor; & = joins results of further samples. A portion of the library. The share of hits here may be higher or lower than overall.

mol | NPYLR7 agonist max-min | NPYLR7 agonist
O=C(c1cc(-c2ccccc2Cl)nc2cc(-c3ccccc3)nn12)N1CCN(c2cccc(C(F)(F)F)c2)CC1 | 9 | 10
O=P1(NCCCO)C=C(c2ccccc2)SC(c2ccccc2)=C1 | 6 | 2
O=C(CSc1nc(=O)n(Cc2ccncc2)c2c1CCC2)Nc1ccc(F)cc1F | -1 | 2
N#CC(C=Nc1ccc(S(=O)(=O)NC(N)=O)cc1)c1nc(-c2cccs2)cs1 (stereo not drawn) | -5 | -3
Cc1sc2nc3c(C(=O)N4CCCC4)cc(C(=O)c4ccccc4O)cn3c(=O)c2c1C | 7 | 7
c1ccc2c(c1)nc(NCCc1c[nH]c3ccccc13)c1nnnn12 | 3 | 10
CC1=C(C(=O)NCCOc2ccc(F)cc2)C(c2cccnc2)NC(=O)N1 (stereo not drawn) | 6 | 7
CCOc1ccc(C(=O)Nc2c(C)nc3c(C)cccn3c2=O)cc1 | 2 | 6
Cc1nnsc1CN(C)Cc1cn[nH]c1C1CCCCC1 | 6 | 5
CC(C)c1csc(C(=O)N2CCn3cncc3C2)n1 | -6 | -3
O=C(O)C1CCN(C(=O)C2c3ccccc3Oc3ccccc32)CC1 | -2 | 2
Cc1cc(Nc2ccc(SC(F)F)cc2)nc(-n2nc(C)cc2C)n1 | 4 | 3
CNCCN1C(=O)C(C)SC1c1cccc(C)c1 (stereo not drawn) | -7 | 0
Cc1ccc2c(=O)c(C(=O)NCCc3ccccc3F)c[nH]c2n1 | 5 | 12
Cc1ncc(CO)c2c1Oc1nc(-c3ccccc3)nc(SCC(=O)Nc3ccccc3F)c1C2 | 11 | 9

Exported with values under each structure: part of the list above.
Results follow in this order: NPYLR7 agonist max-min, NPYLR7 agonist
> CC1=C(C(=O)NCCOc2ccc(F)cc2)C(c2cccnc2)NC(=O)N1 (stereo not drawn)
  6, 7
> O=C(c1cc(-c2ccccc2Cl)nc2cc(-c3ccccc3)nn12)N1CCN(c2cccc(C(F)(F)F)c2)CC1
  9, 10

Later entries:
mol | NPYLR7 agonist max-min | NPYLR7 agonist
O=S(=O)(Nc1ccc2cccc(Br)c2n1)c1ccc(F)c(F)c1 | -6 | 0
CCOP(=O)(CCCCNC(=O)C(C)(C)Oc1ccc(CCNC(=O)c2ccc(Cl)cc2)cc1)OCC | -6 | -5
COc1cccc(N=Nc2c(C)[nH]n(-c3nc(-c4ccc(Br)cc4)cs3)c2=O)c1 | -6 | 1
Cc1nc(N(C)C2CCCCC2)ncc1C(C)NCc1cnc(N(C)C)s1 (stereo not drawn) | -3 | 1
CCOC(=O)CNC(=O)CSc1nc2c(c(=O)n1CCc1ccccc1)SCC2 | -4 | 3
CSc1nc(N2CCOCC2)c2cnn(CCNC(=O)CCc3ccccc3)c2n1 | 0 | 2
COc1ccc(OCCNc2ccccc2-c2nn[nH]n2)cc1 | -6 | 0
CCNC(=O)N(Cc1ccc(F)cc1)Cc1cc(NC(=O)c2ccco2)ccc1N(C)C | -13 | -19
COc1ccc(-n2nnc3c(=O)n(Cc4ccccc4Cl)cnc32)cc1OC | -9 | 0
CCN(C(=O)c1cc2c(=O)n(C)c(=O)n(C)c2s1)c1ccccc1C | 2 | 2
CCN(CC)C(=O)Oc1ccc2c(ccn2Cc2cc(OC)cc(OC)c2)c1-c1ccc(OC)c(OC)c1 | 6 | 14
CC1Sc2ccccc2N(Cc2ccccc2C#N)C1=O (stereo not drawn) | 2 | 3
O=C(c1ccco1)N1CCC(CCc2ccc(-c3ccccc3)cc2)CC1 | 13 | 7
Cc1cc(C)cc(N2C(=O)CSC2c2ccc(Cl)cc2)c1 (stereo not drawn) | -8 | -4
Cc1ccc(C(O)c2ncc(-c3ccc4ccccc4c3)[nH]2)cc1F (stereo not drawn) | 3 | 3
COc1ccc(CCN(Cc2sccc2C)C(=O)CN(CCN2CCCC2)C(=O)NCc2ccccc2)cc1OC | 14 | 18
COCC(=O)Nc1cc(C(=O)NC(C)Cn2ccc3ccccc32)c2c(c1)nc(C1CCC1)n2C (stereo not drawn) | 13 | 25
O=C1NCCN1c1cccc(Nc2ncnc3cc(F)c(F)cc23)c1 | 10 | 13
Cc1c(C(=O)NCc2ccc([N+](=O)[O-])cc2)sc(=O)n1Cc1ccc(C(F)(F)F)o1 | 5 | 11
CC(C)CCN(CCC(C)C)C(CO)(CO)CO | -8 | -4
COc1ccc(CCNC(=O)c2ccccc2N2CCC(NC(=O)c3ccc(Br)cc3)CC2)cc1OC | 6 | 3
O=C(c1cc(F)cc(F)c1)N1CCN(Cc2ccc(-c3noc(-c4ccco4)n3)cc2)CC1 | 1 | 7
CS(=O)(=O)NC1CCN(CC2(O)CCCN(CCc3ccccc3)C2=O)CC1 (stereo not drawn) | 14 | 28
COc1ccc(NC(=O)Nc2ccc(-c3ccc(N4CCCCC4)nn3)cc2)cc1OC | -3 | -3
Cn1cnc(S(=O)(=O)NCC2CCCCCCC2)c1Cl | -2 | -2
CCC1CN(Cc2cc3c(cc2O)OCO3)CCO1 (stereo not drawn) | -4 | -3
CCC(C(=O)N1CCC(NC(=O)N2CCC(C(N)=O)C2)CC1)c1ccccc1 (stereo not drawn) | -1 | 1
COC(=O)CCCC(=O)N1CCCN(c2nc3ccccc3nc2-c2ccccc2)CC1 | -1 | 2
Brc1cccc(CSc2nnc(-c3cc(-c4ccccc4)nc4ccccc34)n2CC2CCCO2)c1 (stereo not drawn) | -5 | -2
COc1ccc(C(C)=O)cc1N1C(=O)C2C3C=CC(C3)C2C1=O (stereo not drawn) | -3 | -3
CC(=O)Nc1sc(C)c(C)c1C(=O)OCc1cc(=O)n2ccsc2n1 | -1 | 2
Cc1ccc(C(O)=C2C(=O)C(=O)N(CCCn3ccnc3)C2c2ccncc2)cc1 (stereo not drawn) | 11 | 7
Cc1ccc(NC(=O)c2c(-c3ccccc3)noc2C)cc1Cl | -2 | 1
CN(Cc1ccc(C(=O)Nc2nn(C)c3ccccc23)cc1)Cc1ccno1 | -3 | -3
CCN(Cc1nc2ccccc2c(=O)[nH]1)C(=O)COc1cccc(C)c1C | -9 | -4
CCCOC(=O)c1ccc(NC(=O)CCN2C(=O)c3ccccc3C2=O)cc1 | -13 | -11
COc1ccc(C(=O)CN2CCN(C(=O)c3cn(C)cc4c(=O)n(-c5ccccc5)nc3-4)CC2)cc1 | -6 | -3
O=C(CCN1CCCCO1)NCC(c1ccccc1)C1CCCC1 (stereo not drawn) | -10 | -1
CSc1nc2nc(C)c(CCC(=O)Nc3nccs3)c(C)n2n1 | 4 | 5
CC1(C)CC(=O)C2C(=Nc3ccccc3NC2c2ccc(Br)s2)C1 (stereo not drawn) | 6 | 10
Cc1ccc(S(=O)(=O)N2CCC(C(=O)N3CCCC3c3ccccc3)CC2)cc1C (stereo not drawn) | 3 | 0
CCS(=O)(=O)c1ccc(S(=O)(=O)NC2(c3ccc(F)cc3)CCC2)cc1 | 2 | 3
O=C1c2cccc(O)c2CCN1Cc1ccccc1 | 1 | 1
COc1ccc(-n2cc(-c3ccnc(NCCC4CCCN4C)n3)cn2)cc1 (stereo not drawn) | 4 | 4
CCc1[nH]nc2c1C1(CCOCC1)C(C#N)C(=N)O2 (stereo not drawn) | 3 | 2
O=C1CCC(c2ccc3c(c2)OCCO3)=NN1Cc1cccnc1 | -4 | -3
CC(=O)Oc1ccccc1C(=O)N1CCN(c2nc3nccc(-c4ccc(Cl)c(Cl)c4)n3n2)CC1 | -2 | -2
Cc1ccc(-n2nc(C(=O)O)c(=O)n(Cc3ccccc3Cl)c2=O)cc1Cl | 35 | 29
Cc1cnc(NCCCc2ccncc2)nc1N(C)C | 2 | 5
CC1(C(=O)Nc2cccc3ncccc23)CCN1C(=O)C/C=C/c1ccccc1 (stereo not drawn) | 21 | 19
COc1ccc(CC(=O)NCc2cc(-c3cc4ccccc4o3)on2)cc1 | -1 | 1
Cc1ccc(Cc2nc(CSc3ccccn3)cs2)cc1 | 13 | 3
N#CCSc1nnnn1-c1ccccc1 | -18 | -10
CCCCSc1nc2c(c(=O)[nH]c(=O)n2C)n1CCC(C)C | 12 | 24
Cc1ccc(C2(O)CCN(C(=O)CCc3n[nH]c4c3CCCC4)CC2)nc1 | 3 | 4
CCc1ccc(-c2noc(CSc3nnnn3C3CC3)n2)cc1 | 5 | -1
c1ccc(-c2nn3c(CN4CCOCC4)nnc3c3ccccc23)cc1 | 15 | 19
N#CCC1=NNC2(O1)C(=O)Nc1ccccc12 (stereo not drawn) | 10 | -6
COc1ccc(CCN(Cc2ccco2)C(=O)CN(C(C)C)S(=O)(=O)c2cccc3cccnc23)cc1OC | 9 | 1
Cc1ccccc1SCC(=O)N1[C@@H]2CC[C@H]1CNC(=O)C2 | -6 | -4

The list continues.
mol | NPYLR7 agonist max-min | NPYLR7 agonist
COc1cccc(CN(Cc2ccccc2)Cc2cccn2Cc2cccc(C(F)(F)F)c2)c1 | 3 | 0
Cc1ccc(C=C(C#N)C(=N)C(C#N)C#N)s1 | 24 | 19
c1ccc2oc(-c3csc(Cc4nnc5n4CCCCC5)n3)cc2c1 | 2 | -7
O=C(Cn1c2ccccc2c(=O)c2ccccc21)NCCCN1CCOCC1 | -1 | -1
CC(=O)Nc1ccc(-c2nc(-c3cccs3)sc2C)cc1 | -2 | -1
COc1ccccc1/C=C1N=C(/C=C\c2cccc([N+](=O)[O-])c2)OC/1=O | -4 | -1
CCOC(=O)c1c[nH]n2c(=O)cc(CN(CC(O)COc3cccc4ccccc34)C(C)C)nc12 (stereo not drawn) | 25 | -1
COc1ccccc1C1SCC(=O)N1CCC(=O)NCc1ccc(F)cc1 (stereo not drawn) | 8 | -2
NC1=NC2(CCSC2)n2c(nc3cc4c(cc32)OCCCO4)N1 (stereo not drawn) | 6 | 5
C=C(C)CC(C)=NNc1ccc([N+](=O)[O-])cc1[N+](=O)[O-] | 27 | 24
O=C1NC(=S)NC(=O)C1=Cc1ccc(OCCBr)cc1 | -14 | -11
COc1ccc(-c2nn(CC(N)=O)c(=O)c3nc(C)sc23)cc1OC | 1 | 3
C=c1ccccc1=c1[nH]/c(=C/c2ccc3c(c2)OCO3)c(=O)o1 | 1 | 2
Cc1ccc2nc(CSc3nnc(NC4CC4)s3)cc(=O)n2c1 | 3 | 2
Cn1c(C(=O)NCCN)cc(Br)c1Br | -3 | -1
Cc1ccccc1-c1onc(C)c1C(=O)NCc1ccc(C(F)(F)F)cc1 | -1 | 4
COC(=O)C(Nc1ccc(OC)cc1)(c1cc(OC)c(O)c(OC)c1)C(F)(F)F (stereo not drawn) | -10 | -7
Cc1nn(-c2ccccc2)c2nc(Cc3ccccc3)nc(N3CCCN(C(=O)c4ccc(Br)cc4)CC3)c12 | 5 | 0
CCCN(C)c1cc(-c2ccccc2)nc(SCc2cccc(C(=O)N3CCC(C(=O)OCC)CC3)c2)n1 | 18 | 5
O=C(NC1CCCCC1)NN1C(=O)C(=Cc2cccs2)SC1=S | -6 | -2
CCOCCCN(CC(=O)N(CCc1ccccc1)Cc1ccc(C)o1)C(=O)c1ccc(Cl)c(Cl)c1 | 1 | -4
CCN(CCn1cccn1)C(=O)Cn1nnnc1CN1CCCCCC1 | -2 | 1
Clc1ccc(-c2csc(=Nc3cccnc3)n2C2CC2)cc1 | -2 | 0
N[C@@H]1CC[C@@H](NC(=O)CCN2CCc3ccccc32)C1 | -6 | -3
CN(C)c1ccc(S(N)(=O)=O)cc1N | 32 | 34
N[C@@H]1c2ccccc2C2(CCN(C(=O)c3ccc4[nH]ccc4c3)CC2)[C@H]1O | 7 | 7
C#CCOCC(O)CN(Cc1ccc(F)cc1)Cc1ccc(C)o1 (stereo not drawn) | 16 | 15
O=C1CSC(=Nc2ccc(Cl)cc2)N1 | -4 | -1
O=[N+]([O-])c1ccn(Cc2ccccc2)n1 | 4 | 4
Clc1ccc(Nc2nc(NCC3CCCO3)nc3c2cnn3-c2ccccc2)cc1 (stereo not drawn) | -1 | 1
CSc1nc(N)cc(=O)[nH]1 | 6 | 7
CNc1cccc(-c2ccc(C(=O)N3CCOCC3)cc2)n1 | -2 | -2
Cc1cccc(-c2noc(CS(=O)(=O)C(C)C(=O)NC3CCCC(C)C3C)n2)c1 (stereo not drawn) | 767 | -7
O=C(NC1CCCCCCC1)C(c1ccccc1)n1cccn1 (stereo not drawn) | -3 | 0
CSc1nc2cc(Oc3ccc(Br)c4ccccc34)c(Cl)cc2[nH]1 | -14 | -4
Cc1cc(C)cc(-n2c(C)cn3c4c(=O)n(C)c(=O)n(C)c4nc23)c1 | 5 | 6
N#CC(C(=O)CCn1cc(Br)ccc1=O)c1ccccn1 (stereo not drawn) | -2 | -2
COC(=O)c1ccc(Cn2nc(C)c3cnn(-c4ccccc4)c3c2=O)o1 | 6 | 8
O=c1n(CCn2cncn2)nc(C2CCNCC2)n1-c1ccccc1 | 2 | 4
CC1(C)Cc2ccccc2C(NN=C2CCCC2)=N1 | 4 | 5
COc1cc(NC(=O)N2CC(=O)N3CCc4c(F)cccc4C3C2)cc(OC)c1OC (stereo not drawn) | 41* | 43*
CCOCCCN(CC(=O)N(Cc1ccccc1)Cc1ccc(C)s1)C(=O)c1ccc(C(C)(C)C)cc1 | 7 | -4
COc1ccccc1N1CCn2c1nc1c2c(=O)[nH]c(=O)n1C | 5 | 11
Cc1nc2c(-c3ccccc3)cnn2c(N2CCCC2)c1C | 2 | 4
CC(Nc1snc(Cl)c1C#N)C(=O)Nc1ccccc1 (stereo not drawn) | -7&8 | -5&11
CCCCNC(=O)N1CCN(C(=O)CCN2CCc3sccc3C2c2ccccc2)CC1C (stereo not drawn) | 4 | 14

Complete entries from above.
Profile of Brc1cccc(CSc2nnc(-c3cc(-c4ccccc4)nc4ccccc34)n2CC2CCCO2)c1 (stereo not drawn) = NPYLR7 agonist max-min = -5; NPYLR7 agonist = -2
Profile of COc1ccc(CCN(Cc2ccco2)C(=O)CN(C(C)C)S(=O)(=O)c2cccc3cccnc23)cc1OC = NPYLR7 agonist max-min = 9; NPYLR7 agonist = 1
Profile of Cc1nc2c(-c3ccccc3)cnn2c(N2CCCC2)c1C = NPYLR7 agonist max-min = 2; NPYLR7 agonist = 4
